# Compound activity as filed in PubChem.
# GLA inh pH 4.5: inhibitors of human alpha-galactosidase A at pH 4.5; P06280; purified enzyme, 4-MU-alpha-Gal fluorescence, pH 4.5; activity change, negative = inhibition, % at 105 µM; 230,000 tested, under 10 active; AID 1467; inconclusive = small, poorly fitted or top-dose-only inhibition, or a rising curve; inactive = flat fitted curve, though single readings scatter; no compound was filed as active;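 further: 0% = full activity with enzyme and -100% = basal without enzyme; dose as in the result columns while the protocol names 77 µM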
# miR-21 reporter: miR-21 reporter, rising signal; HeLa miR-21 FLuc reporter, luciferase, 48 h; Potency, µM (titrated, usually from 38.3 µM), for inactives: at the highest dose reporter change, positive = more light; 340,000 tested, under 10 active; active = well fitted rising curve with a large enough effect; inconclusive = small, poorly fitted or top-dose-only effect; inactive = no such curve, though single readings can be large or run the other way;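 further: % of control where 0% means no effect; miR-21 action dims this reporter so a rising signal means less miR-21 action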
#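 Compounds were titrated across several concentrations (up to approximately 40 uM) and incubated 48 hours with HeLa miR-21-FLuc reporter cells (miR-21 target sequence downstream of FLuc, endogenous miR-21). Readout was firefly luciferase luminescence after lytic detection reagent.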
# Rango release inh: prevents RanGTP from dissociating the Rango-importin beta complex; Potency, µM (titrated, usually from 46.1 µM), for the others: at the highest dose activity change, negative = inhibition; Biochemical FRET Rango-importin beta, RanGTP-induced dissociation; 340,000 tested, 0.071% active; O95149+P62826; active means falling FRET ratio curve, often poorly fitted, with flat reads before Ran was added; inconclusive means other falling curves, or compound fluorescence or quenching; inactive means flat or rising ratio curve;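 further: potency means the concentration at half of the fitted maximal effect; % of control where 0% means no effect; nearly all actives have a fitted effect of over 45% in size; -100% = wells without RanGTP and RCC1; the record marks most hits as doubtful in a second field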
#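 Rango (0.1 uM)–importin beta (0.25 uM) complex; RanGTP-RCC1 trigger; 45 min RT; CFP/YFP FRET read.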
# Rango-impB inh: Rango-importin beta binding inhibition; Q14974; Rango CFP/YFP FRET sensor + importin beta, 45 min; Potency, µM (highest dose often 92.2 µM), for the others: at the top dose inhibition of complex formation; 340,000 tested, 0.031% active; AID 540263; active = rising FRET ratio curve, often small or poorly fitted; inconclusive = mostly compound fluorescence or quenching in the first reads; inactive = flat curves in all reads;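 further: potency means the concentration at half of the fitted maximal effect; 0% = DMSO wells and 100% = buffer wells lacking importin beta; nearly all actives have a fitted effect of over 15% in size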
# Target sequence (Q14974 whole entry, looked up): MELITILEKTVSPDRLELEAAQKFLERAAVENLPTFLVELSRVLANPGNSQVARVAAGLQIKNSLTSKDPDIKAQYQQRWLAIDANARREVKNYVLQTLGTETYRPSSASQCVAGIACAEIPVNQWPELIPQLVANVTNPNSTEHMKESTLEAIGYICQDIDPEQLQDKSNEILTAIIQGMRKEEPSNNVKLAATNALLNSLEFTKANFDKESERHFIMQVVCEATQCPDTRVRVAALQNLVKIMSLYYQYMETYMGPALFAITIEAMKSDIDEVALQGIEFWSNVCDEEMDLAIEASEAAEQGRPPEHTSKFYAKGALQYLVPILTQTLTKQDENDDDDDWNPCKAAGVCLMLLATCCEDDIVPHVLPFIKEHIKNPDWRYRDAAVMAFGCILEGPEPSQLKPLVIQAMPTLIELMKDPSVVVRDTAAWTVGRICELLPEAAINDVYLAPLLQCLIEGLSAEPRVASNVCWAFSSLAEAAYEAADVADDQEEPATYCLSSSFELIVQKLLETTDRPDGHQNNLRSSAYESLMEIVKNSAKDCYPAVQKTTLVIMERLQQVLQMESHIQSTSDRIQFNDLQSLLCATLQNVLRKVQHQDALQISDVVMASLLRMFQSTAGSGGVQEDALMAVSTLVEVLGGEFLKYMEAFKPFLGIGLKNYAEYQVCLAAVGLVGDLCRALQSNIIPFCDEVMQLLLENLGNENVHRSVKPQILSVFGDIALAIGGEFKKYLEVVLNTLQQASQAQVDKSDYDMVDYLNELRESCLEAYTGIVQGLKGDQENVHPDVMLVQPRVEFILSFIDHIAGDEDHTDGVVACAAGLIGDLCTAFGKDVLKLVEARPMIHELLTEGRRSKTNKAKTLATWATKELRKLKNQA
#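 FRET biosensor Rango (snurportin 1 IBB between N-terminal EYFP and C-terminal Cerulean), 50 nM in PBS/1 mM DTT/0.02% Tween-20/0.1% BSA, preincubated 5 min RT with compound; 0.125 microM importin beta added, 45 min RT, CFP/YFP FRET ratio read.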
# An asterisk follows results filed as active; ? = inconclusive; / = no result given; & = joins results of further samples. Some of the compounds tested (hit frequency here may not be typical).
# The opening seven entries (preview)
GLA inh pH 4.5,miR-21 reporter,Rango release inh,Structure,Rango-impB inh
2,23%,-6%,O=C1Nc2ccc(Cl)cc2/C1=C/C1CC=CCC1 (centres undefined),7.3%
/,7%,-6%,CC(Sc1nnc(-c2ccccc2F)n1C1CC1)C(=O)NC(N)=O (centres undefined),-0.7%
/,2%,-9%,CC1CCN(C(=O)CCNS(=O)(=O)c2ccc3c(c2)c(=O)n(C)c(=O)n3C)CC1,2.3%
-11,-7%,-9%,O=C(Oc1ccc2c(=O)c(Oc3ccc4ccccc4c3)coc2c1)c1cccnc1,-3.1%
/,/,-26%,O=C(NC1CC1)C1=C[C@@H](c2ccc(C(F)(F)F)cc2)C[C@@H](OCc2ccc(CO)cc2)O1,2.8%
2,-30%,6%,CCCS(=O)(=O)N1CCC(Cc2ccc(OC)cc2)(C(=O)OCC)CC1,2.6%
-1,-16%,-14%,CCOC(=O)c1c(-c2ccc(OC)cc2)nc2nonc2c1N,-0.6%

# Results (from the top)
GLA inh pH 4.5,miR-21 reporter,Rango release inh,Structure,Rango-impB inh
2,23%,-6%,O=C1Nc2ccc(Cl)cc2/C1=C/C1CC=CCC1 (centres undefined),7.3%
/,7%,-6%,CC(Sc1nnc(-c2ccccc2F)n1C1CC1)C(=O)NC(N)=O (centres undefined),-0.7%
/,2%,-9%,CC1CCN(C(=O)CCNS(=O)(=O)c2ccc3c(c2)c(=O)n(C)c(=O)n3C)CC1,2.3%
-11,-7%,-9%,O=C(Oc1ccc2c(=O)c(Oc3ccc4ccccc4c3)coc2c1)c1cccnc1,-3.1%
/,/,-26%,O=C(NC1CC1)C1=C[C@@H](c2ccc(C(F)(F)F)cc2)C[C@@H](OCc2ccc(CO)cc2)O1,2.8%
2,-30%,6%,CCCS(=O)(=O)N1CCC(Cc2ccc(OC)cc2)(C(=O)OCC)CC1,2.6%
-1,-16%,-14%,CCOC(=O)c1c(-c2ccc(OC)cc2)nc2nonc2c1N,-0.6%
/,6%,?,CCN(Cc1cc2ccccc2[nH]c1=O)S(=O)(=O)c1ccc(OC)cc1,-0.9%
-2,-4%,-10%,Cc1ccc(S(=O)(=O)NC(=O)N2CCN(Cc3c(F)cccc3Cl)CC2)cc1,-0.3%
-1,-5%,7%,Cn1ccnc1SCC(=O)Nc1cc(C(F)(F)F)ccc1N1CCOCC1,?
-17,1%,-7%,CC(=O)N1CCCc2cc(S(=O)(=O)CCC(=O)N3CCN(c4ccccc4)CC3)ccc21,-1.5%
5,-6%,-2%,CCOC(=O)C1(O)CC(C)=NN1C(=O)c1cccc(Cl)c1 (centres undefined),-2.5%
-5,-1%,8%,CCOC(=O)N1CCN(c2nc(C)cc(C(F)(F)F)n2)CC1,0.4%
0,-35%,6%,COCCNC(=O)c1nc2ccccc2s1,-0.3%
3,16%,-4%,COc1ccc(CNC(=O)C/C(C)=N/NC(=O)COc2ccc(C)cc2Br)cc1,1.0%
2,-9%,4%,O=C(Oc1ccc2ccc(OC(=O)N3CCOCC3)cc2c1)N1CCOCC1,-7.7%
/,-36%,-3%,Cc1cccc(Nc2nc(-c3ccc(F)cc3)cs2)n1,-0.3%
-2,-3%,-2%,CC(C)(C)OC(=O)NNC(=O)c1cccs1,0.7%
/,-39%,-24%,O=C(NC(=S)Nc1cccnc1)c1ccccc1,-4.3%
-10,3%,10%,Fc1ccc(N2CN(Cc3cccnc3)CNC2=S)cc1,0.7%
4,-2%,5%,Cc1ccc(NS(=O)(=O)c2cc(C(=O)OCC(=O)NCC3CCCO3)ccc2C)cc1 (centres undefined),-2.8%
4,0%,-3%,C/C(=C\C(=O)N1CCc2ccccc21)C(=O)O,0.4%
/,0%,4%,Cc1cc([N+](=O)[O-])nn1CC(=O)N(C)Cc1ccccc1,?
/,8%,-3%,Cc1noc(C)c1C(=O)Nc1nc2ccc(S(C)(=O)=O)cc2s1,-0.5%
-2,-8%,3%,Cc1c(N2C(=O)CSC23C(=O)Nc2ccccc23)c(=O)n(-c2ccccc2)n1C (centres undefined),1.1%
-24,-11%,-9%,CCOc1ccc(Cc2n[nH]c(=S)n2Cc2ccccc2)cc1,0.7%
6,2%,34%,O=c1ccc(Cc2ccc(Cl)cc2)n[nH]1,1.0%
7,-7%,-10%,CC(Oc1ccc(F)cc1)C(O)CCN(C)C (centres undefined),4.5%
/,/,12%,CS(=O)(=O)Cc1ccc(C(=O)N2CCN(C(=O)c3cccs3)CC2)cc1,-3.6%
18,3%,-8%,COc1ccccc1CC(=O)NNS(=O)(=O)c1ccc([N+](=O)[O-])cc1,1.6%
4,-1%,36%,COc1ccc(OC)c(C(c2nnnn2C(C)(C)C)N2CCc3ccccc3C2)c1 (centres undefined),-0.5%
/,-7%&-2%,?,CCN1CCN(CCCNC(=O)CS(=O)(=O)Cc2nc(-c3ccccc3C)oc2C)CC1,0.1%
5,-27%,3%,CCC(C)c1ccc(O)c(N)c1 (centres undefined),-0.1%
/,/,7%,CC(Nc1nc(-c2ccc(F)cc2)cs1)c1nc2cc(Cl)c(N3CCCCC3)cc2n1CCOCCO (centres undefined),0.0%
/,/,-6%,CCN(CC(=O)Nc1ccc(NC(C)=O)cc1)C(=O)CSCc1c(C)noc1C,-1.3%
/,-64%,14%,O=C(O)c1ccc(-c2nnc(-c3ccccc3)o2)cc1,-0.1%
/,1%,17%,COc1ccc(S(=O)(=O)N2CC(C(=O)O)Oc3ccc(Cl)cc32)cc1 (centres undefined),1.6%
-11,-1%,1%,CN1/C(=C/C(=O)CSc2ccccc2C(=O)O)C(C)(C)c2ccccc21,?
4,4%,16%,Cc1cc(C)n(CCC(=O)N/N=C/c2ccc(O)cc2)n1,4.0%
-8,-59%,2%,c1ccc(C2=NNC(=NCc3ccc4c(c3)OCO4)SC2)cc1,0.4%
/,/,1%,Cc1ccc(C(=O)Nc2cccc(C(O)c3ccccc3)c2)cc1 (centres undefined),2.2%
/,10%,18%,Cc1ccc(S(=O)(=O)c2nc(S(C)(=O)=O)sc2N2CCOCC2)cc1,-0.1%
2,-15%,?,CC(C)C(c1nnnn1Cc1ccccc1)N(CCCO)Cc1cc2cc3c(cc2[nH]c1=O)OCO3 (centres undefined),?
/,0%,13%,Cc1ccc(CNc2cc(C(=O)O)ccc2C)s1,-0.6%
-10,-5%,1%,CCC(CC)Nc1ccc(C(CC(N)=O)NC(=O)Cc2ccc(Br)cc2)cc1[N+](=O)[O-] (centres undefined),3.0%
/,/,?,Cc1ccc(C(c2nnnn2C2CCCC2)N2CCN(c3nc4ccccc4s3)CC2)cc1 (centres undefined),-0.1%
/,/,0%,COc1cc(C(=O)NNC(=O)CCOc2ccccc2)cc(OC)c1OC,-1.4%
/,-1%,17%,Cc1sc2ncnc(SCC(=O)NC3CCCC3)c2c1C,0.5%
3,-27%,0%,CC(=O)c1cc(C#N)c(N(C)Cc2ccccc2)nc1C,0.2%
0,-7%,?,N#C/C(=C\c1cn(Cc2ccccc2F)c2ccccc12)C(=O)NCc1ccco1,?
/,-2%,21%,COc1ccccc1CCNC(=O)C(=O)NCC1OCCN1S(=O)(=O)c1cc(F)ccc1F (centres undefined),2.2%
/,-5%,-6%,O=C(Cn1ncn2nc(-c3ccccc3)cc2c1=O)NCc1ccccn1,5.5%
-5,-19%,16%,Clc1ccc(-c2nnc(C3CCCCC3)o2)cc1,-4.7%
-10,11%,-21%,O=C(O)CCCC(=O)Nc1ccc(-n2ccc(C(F)(F)F)n2)cc1,-0.5%
-13,-2%&1%,15%,CCC(C)NC(=O)CCC(=O)NNc1nc2ccccc2c2nc(C)nn12 (centres undefined),0.1%
-4,2%,6%,COc1cccc(N(C(=O)Cn2nnc(-c3cccs3)n2)C(C(=O)NC2CCCCC2)c2ccncc2)c1 (centres undefined),-0.7%
4,-2%,-5%,Cc1cc(NC(=O)CN2CCCCC2C)no1 (centres undefined),-1.9%
1,-10%,16%,O=S(=O)(c1cccc(C(F)(F)F)c1)N1CCC(O)(c2cccnc2)CC1,-0.1%
/,2%,2%,Cn1c(SCC(=O)NC2CCCCC2)nnc1-c1ccccn1,3.7%
9,-4%,15%,CC(=O)N(CN1C(=O)c2ccccc2C1=O)c1cccc(C)c1,0.7%

# Continuation.
GLA inh pH 4.5,miR-21 reporter,Rango release inh,Structure,Rango-impB inh
-6,-2%,-8%,CN(c1ccccc1C(N)=O)S(=O)(=O)c1ccccc1,-0.7%
/,/,8%,COc1ccc(S(=O)(=O)N2CCN(CC(=O)c3[nH]c(C)c(C(C)=O)c3C)CC2)cc1OC,4.7%
1,2%,-14%,Cc1cc(Nc2ccccc2C(=O)O)nc2nc3ccccc3c(=O)n12,0.4%
/,-43%,-9%,CCCOc1ccc(CNC(=O)Cc2cccs2)cc1,1.1%
-8,-1%,?,O=C(O)c1cc([N+](=O)[O-])ccc1N1CCC(Cc2ccccc2)CC1,0.0%
4,-42%,16%,CCCCc1c(C)nc2cc(-c3ccco3)[nH]n2c1=O,3.6%
-9,-3%,10%,C=C1CSc2nc(=O)c3c(C)c(C)sc3n21,1.3%
/,0%,-10%,Cc1ccc(-n2nc(C)c3c(C)c(CCC(=O)O)c(C)nc32)cc1,1.7%
0,-67%,-1%,N#Cc1c(N2CCOCC2)nsc1-c1ccccc1,-0.4%
-5,-37%,13%,C/C(=N/Oc1nc(C)cc(C)n1)c1ccc(F)cc1,-0.3%
/,/,-19%,CCOc1ccc(C(=O)NCC(=O)OCC(=O)Nc2nnc(-c3ccccc3)o2)cc1,5.5%
/,/,-1%,CCOc1ccc2oc(C(=O)N(CC)CC(=O)Nc3c(F)cccc3F)c(C)c2c1,?
/,13%,-11%,CCCCSc1nc2sc3c(c2c(=O)n1-c1ccc(C)cc1)CCN(C)C3,0.5%
8,-15%,-2%,Cc1cc(C)n(CCCN2C(=O)c3cccc4cccc(c34)C2=O)n1,-5.4%
0,16%,1%,CN1CCN(C2=C(Cl)C(=O)N(c3ccc(Cl)c(Cl)c3)C2=O)CC1,1.1%
/,4%,-23%,O=C(CSc1nnc(CNC(=O)c2c(F)cccc2F)o1)Nc1ccc2c(c1)OCO2,-2.3%
-2,-3%,-11%,CN1CCCN(C(=O)c2cc(=O)[nH]c3ccccc23)c2nc3ccccc3nc21,?
/,1%,-6%,O=[N+]([O-])c1cc(-c2ccc(/C=N/n3cnnc3)o2)ccc1Cl,2.4%
/,-2%,6%,CC[C@H]1OC(=O)[C@H](C)[C@@H](O[C@H]2C[C@@](C)(OC)[C@@H](O)[C@H](C)O2)[C@H](C)[C@@H](O[C@@H]2O[C@H](C)C[C@H](N(C)C)[C@H]2O)[C@](C)(O)C[C@@H](C)C(=O)[C@H](C)[C@@H](O)[C@]1(C)O,1.9%
5,-9%,7%,CC(=O)C1=C(O)C(=O)N(Cc2ccccc2)C1c1ccccc1F (centres undefined),2.9%
1,14%,19%,COc1ccc(C(=O)C2CCCN(C(=O)CCc3scnc3C)C2)c(C)c1 (centres undefined),2.0%
11,/,-18%,COC/C=C/C1=CC2=CC(=O)C(C)(OC(=O)c3cnc4ccccc4n3)C(=O)C2=CN1c1ccc(OC)cc1 (centres undefined),-2.2%
-3,-6%,8%,CC(=O)c1ccc(NC(=O)N2CCN(c3cccc(Cl)c3)CC2)cc1,1.7%
6,1%,-10%,Cn1c(=O)cc(OCCCC(=O)NCc2cccnc2)c2ccccc21,2.2%
-20,-26%,-2%,Cc1ccccc1Cn1cc(NC(=O)COc2ccccc2)cn1,2.2%
-16,0%,0%,COC(=O)c1cccc(-n2[nH]nnc2=S)c1,0.6%
6,1%,-15%,Cc1ccc2c(c1)N(C(C)C(=O)NCc1ccc3c(c1)OCO3)C(=O)CO2 (centres undefined),2.8%
-4,9%,7%,Nc1cc(S(=O)(=O)N2CCCCC2)ccc1Oc1ccccc1,0.2%
/,1%,20%,CC(=O)c1ccc(C(=O)N2CCCC(C(=O)c3ccc(Cl)cc3)C2)s1 (centres undefined),-0.2%
/,/,0%,O=C(NCC(c1ccco1)N1CCOCC1)c1ccc(C(F)(F)F)cc1 (centres undefined),-1.3%
-14,-6%,2%,CC(C)c1nc(=S)n(-c2ccccc2)[nH]1,-0.5%
/,/,-1%,COc1ccc(OCCCC(=O)OCC(=O)Nc2nnc(-c3ccccc3)o2)cc1,0.2%
/,1%,10%,Cc1nc([N+](=O)[O-])cn1CC(=O)Nc1ccc(Cl)cc1,2.5%
